SENP1 FRET inh – blocks the human SENP1 SUMO protease catalytic domain | Q9P0U3 | recombinant SENP1 catalytic domain, CyPet-SUMO1-YPet FRET cleavage | inhibition, % at 10 µM | actives 0.21% (n = 360,000) | AID 624204;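 active = inhibition at least 30% at 10 µM, raw YFP signal under a set limit, fluorescence ratio 0.5 to 1.5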;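 note: 0% = enzyme with DMSO and 100% = no enzyme wells; some results filed as inactive read as strong as hits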
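Assay system: hSENP1 catalytic domain, recombinant. Amount: SENP1 enzyme, 20 pM final. Schedule: 50 min reaction, RT, dark. Technique: FRET, CFP and YFP emission. Control set: no-enzyme wells low, DMSO-plus-enzyme wells high control.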
PfG6PD inh – PfG6PD (Plasmodium falciparum) enzyme inhibition; PfGluPho enzyme, NADPH resazurin-diaphorase fluorescence; inhibition, % at 20 µM; actives 0.78% (n = 350,000); AID 504690;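 active = inhibition reaching at least a set limit at 20 µM in the primary screen, cut at about 59% in these data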;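 note: 0% = DMSO wells with substrate and 100% = DMSO wells lacking glucose-6-phosphate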
SENP8 block – SENP8 (human) protease inhibition | Q96LD8 | recombinant SENP8, Nedd8 substrate fluorescence | inhibition, % at 20 µM | actives 0.64% (n = 360,000) | AID 602440; in the data active = inhibition mostly above about 40%, no sharp cut-off; inactive = mostly below about 27%
HKDC1 inhibitor – HKDC1 (human) hexokinase inhibition; recombinant HKDC1, G6PDH/diaphorase resazurin coupled fluorescence; AID 493160; actives 0.16% (n = 340,000); inhibition, % at 20 µM;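 active = inhibition above about 35% when tested at 20 µM, limit read from the data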;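 note: plate controls were DMSO wells with enzyme for no effect and DMSO wells lacking enzyme for full effect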
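Material – in-house recombinant HK5 (HKDC1) enzyme · Quantity – HKDC1 at 5 µg/mL · Buffer or medium – pH 8.0 Tris buffer with 10 mM MgCl2 · Reagent – glucose with 1 mM ATP · Dosing – single 20 µM dose · Times – reaction time 90 min, room temperature, protected from light · Technique – resorufin fluorescence at 613 nm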
Apaf1 inhib – inhibitors of human Apaf-1 apoptosome; inhibition, % at 20 µM; reconstituted apoptosome caspase-3 activity, DEVD-Rh110 fluorescence; O14727; actives 0.71% (n = 330,000); active = inhibition of at least 40% at 20 µM;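 note: plate controls were DMSO wells for no effect and DEVD-CHO caspase inhibitor wells for full effect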
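Material: cell-free apoptosome with Apaf-1, procaspase-3 and caspase-9; Buffer or medium: Hepes pH 7.5 with detergent and BSA; Reagent: cytochrome c trigger plus (Z-DEVD)2-Rh110 caspase-3 substrate; Times: compound with Apaf-1, dATP, procaspase-3 30 min, then 50 min reaction, room temperature; Technique: Rh110 fluorescence intensity.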
* hit, by the source's call. Only part of the results is shown, so the mix of outcomes need not match the whole.

cpd | SMILES | SENP1 FRET inh | PfG6PD inh | SENP8 block
1 | CN1CCN(C(=O)c2ccc3c(c2)NC(=O)/C(=C/c2ccccc2)S3)CC1 | -0.4 | -0.8 | -26.2
2 | CC(C)NC(=O)C1(S(=O)(=O)c2ccccc2)CC=CC1 | 0.5 | 10.1 | 5.2
3 | CCn1c(Cc2ccccc2)nnc1SCC(=O)Nc1ccc(S(N)(=O)=O)cc1 | 1.1 | -4.4 | 13.6
4 | Cc1sc2ncn(CC(=O)NCCCC(=O)N3CCN(c4ccccc4)CC3)c(=O)c2c1C | 0.2 | -10.6 | 25.7
5 | CC(C)(C)c1cc(Cl)ccc1OCCOCCN1CCCC1 | -1.6 | 29.8 | 19.9
6 | COc1ccc(OC)c(NC(=O)c2ccc(-c3csc(C)n3)cc2)c1 | 1.9 | -8.2 | -20.2
7 | O=C1COc2ccc(C(=O)COC(=O)CNC(=O)c3ccccc3)cc2N1 | -1.2 | 5.9 | -1.1
8 | Cc1cccc(NC(=O)Cn2cnc(S(=O)(=O)N3CCCC3)c2)c1C | 2.0 | -6.3 | 24.6
9 | Cc1cc(F)ccc1NC(=O)c1ccc(NS(=O)(=O)c2cc(C(C)(C)C)ccc2C)cc1 | 3.9 | -5.6 | 11.4
10 | CCN(CC)C(=O)CSc1nc(-c2ccc(C)cc2)nc2c1COC(C)(C)C2 | 0.6 | -11.1 | 1.0
11 | O=C(Nc1ccc(Cl)cc1)c1cc(S(=O)(=O)Nc2ccccn2)ccc1Cl | 3.4 | -13.8 | -123.5
12 | O=C1COc2ccc(C(=O)CSc3nnc(Cc4ccccc4)o3)cc2N1 | -0.2 | 10.1 | 14.6
13 | COC(=O)c1cc(=O)nc2sc3cc(OC)ccc3n12 | 0.4 | 4.8 | -290.4
14 | O=C(O)c1ccc(/C=C(\c2nc3ccccc3[nH]2)c2nc3ccccc3s2)cc1 | -37.4 | -27.5 | -326.0
15 | CC(=O)CSc1nnc(C(F)(F)F)n1C | -0.8 | -2.3 | 23.7

cpd | HKDC1 inhibitor | Apaf1 inhib
1 | -1.0 | 12.3
2 | -4.8 | -6.6
3 | -7.1 | -14.1
4 | -4.0 | -312.6
5 | -6.8 | 21.7
6 | 7.2 | 9.3
7 | -11.3 | 0.6
8 | -4.6 | 4.6
9 | -8.8 | 6.4
10 | -1.4 | 6.6
11 | 7.8 | -0.3
12 | -1.9 | 5.5
13 | -3.3 | -1.3
14 | -0.5 | -6.3
15 | 2.0 | -10.8

Sorted by the number under PfG6PD inh (largest number first): four of the compounds above.
nr	SMILES	PfG6PD inh
2	CC(C)NC(=O)C1(S(=O)(=O)c2ccccc2)CC=CC1	10.1
13	COC(=O)c1cc(=O)nc2sc3cc(OC)ccc3n12	4.8
9	Cc1cc(F)ccc1NC(=O)c1ccc(NS(=O)(=O)c2cc(C(C)(C)C)ccc2C)cc1	-5.6
6	COc1ccc(OC)c(NC(=O)c2ccc(-c3csc(C)n3)cc2)c1	-8.2

Part of the list above in a different format:
Screens in order: SENP1 FRET inh | PfG6PD inh | SENP8 block | HKDC1 inhibitor | Apaf1 inhib
(5) CC(C)(C)c1cc(Cl)ccc1OCCOCCN1CCCC1
 : -1.6 | 29.8 | 19.9 | -6.8 | 21.7
(6) COc1ccc(OC)c(NC(=O)c2ccc(-c3csc(C)n3)cc2)c1
 : 1.9 | -8.2 | -20.2 | 7.2 | 9.3

Back to the main list, repeating the 2 entries before the break.
cpd | SMILES | SENP1 FRET inh | PfG6PD inh | SENP8 block
14 | O=C(O)c1ccc(/C=C(\c2nc3ccccc3[nH]2)c2nc3ccccc3s2)cc1 | -37.4 | -27.5 | -326.0
15 | CC(=O)CSc1nnc(C(F)(F)F)n1C | -0.8 | -2.3 | 23.7
16 | CC1(CC(=O)N/N=C/c2cc3c(cc2Br)OCO3)OCCO1 | 1.6 | -5.0 | -14.6
17 | CNC(=O)NC(=O)CSc1nnc(-c2ccco2)n1-c1ccccc1 | -0.4 | 11.2 | 8.2
18 | Cc1[nH]n(C(N)=S)c(=O)c1N=Nc1ccccc1C(F)(F)F | 1.9 | 9.7 | 18.5
19 | COc1cccc(/C=N\n2c(C)nnc2C)c1OC | -0.5 | -16.9 | -182.4
20 | COCCNC(=S)NCCCNc1nc2cc3c(cc2cc1C#N)OCO3 | -27.5 | 20.9 | -296.3
21 | O=C(NNC(=O)c1ccccc1-n1cccc1)c1ccc(Cl)c(Cl)c1 | 0.4 | -7.8 | 3.1
22 | COc1cccc(C2C(C(=O)Nc3cccnc3)=C(C)Nc3nnnn32)c1OC (stereo not given) | -0.4 | -8.7 | -1.5
23 | COc1ccc(-c2c(NCCc3ccccc3)c(=O)c2=O)cc1 | 0.5 | 2.4 | 9.0
24 | COc1cc2ccccc2cc1C(=O)Nc1ccccc1Cl | -1.6 | 29.9 | -45.8
25 | Cc1ccsc1S(=O)(=O)N1CCC(CO)(CC2CCCCO2)CC1 (stereo not given) | -0.6 | -13.3 | 7.1
26 | Nc1cc(=O)nc(SCC(=O)NC2CCCCC2)n1-c1ccccc1 | 1.7 | -0.8 | 2.7
27 | COc1cccc(NC(=O)NNC(=O)COc2ccc3ccccc3c2)c1 | -0.8 | -13.0 | 13.2
28 | COc1ccc(C(=O)Oc2cc(/C=N/NS(=O)(=O)c3ccccc3)ccc2OC)cc1 | 3.8 | -7.8 | 31.6
29 | Cc1nn(C)c(C(=O)N/N=C/c2cc3c(cc2Br)OCO3)c1Br | 2.2 | 7.4 | -16.3
30 | C=CCN1CCN(C(=O)c2ccc3c(c2)OCO3)CC1 | 0.0 | 4.4 | 1.6
31 | CCOC(=O)c1c(-c2ccccc2)nnn1-c1nc(OC)nc(N2CCOCC2)n1 | -1.3 | -6.8 | 17.1
32 | Cc1sc2ncn(CC(=O)NCCCC(=O)N3CCN(c4ncccn4)CC3)c(=O)c2c1C | 0.2 | 1.1 | -11.6
33 | COC(=O)C1=NN(c2ccccc2OC)C2C(=O)N(c3ccccc3OC)C(=O)C12 (stereo not given) | 12.4 | -11.8 | -76.0

cpd | HKDC1 inhibitor | Apaf1 inhib
14 | -0.5 | -6.3
15 | 2.0 | -10.8
16 | -7.1 | 12.4
17 | -1.6 | 24.0
18 | -22.9 | -6.7
19 | -6.0 | 3.3
20 | -6.8 | -1.8
21 | 6.1 | 3.0
22 | -2.8 | -1.3
23 | 2.5 | -1.1
24 | 3.4 | 12.6
25 | -9.9 | -2.8
26 | 0.9 | -3.8
27 | -2.4 | 4.6
28 | 0.5 | 21.6
29 | -5.2 | 8.0
30 | -9.6 | -4.6
31 | -1.5 | 0.7
32 | -5.0 | 1.6
33 | -6.2 | -1.8

In the list so far, 2 contain a CF3 group:
cpd | SMILES | SENP1 FRET inh | PfG6PD inh | SENP8 block
15 | CC(=O)CSc1nnc(C(F)(F)F)n1C | -0.8 | -2.3 | 23.7
18 | Cc1[nH]n(C(N)=S)c(=O)c1N=Nc1ccccc1C(F)(F)F | 1.9 | 9.7 | 18.5

cpd | HKDC1 inhibitor | Apaf1 inhib
15 | 2.0 | -10.8
18 | -22.9 | -6.7

Assay outcomes: PubChem BioAssay, Sanford-Burnham Center for Chemical Genomics
